High-throughput results deposited in PubChem BioAssay by Broad Institute.
Tgondii IFNg = T. gondii growth inhibition under IFN-gamma | Toxoplasma gondii growth in IFN-gamma-treated host cells; stronger effect = lower value; reference of the scale not given here | activity change, negative = inhibition, %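 (about 20 µM by stock and volumes)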 | 69,000 tested, 3.8% active | AID 1259416;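 active = below -70%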;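 also: host cells are HeLa cells infected with Toxoplasma gondii; parasite growth read as luciferase light; one replicate is shown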
Starred values were filed as active, the others as inactive. Not all compounds are listed (hit frequency here may not be typical).

compound,Tgondii IFNg
O=C(CCN1CCC(C(O)c2cccs2)CC1)N1CCc2ccccc2C1 (stereo not given),-1
COc1ccc2c(c1)C=C(CN1CCCC(CO)C1)CO2 (stereo not given),28
CN(C)C(=O)[C@]12CCCN(C(=O)c3cccs3)C[C@@H]1CN(Cc1cnn(C)c1)C2,2
N#Cc1ccc(N2C[C@@H]3CN(c4cccnc4)C(=O)[C@@H]3C2)nc1,38
CC(C)(C)OC(=O)N[C@H]1CCCCC/C=C\[C@@H]2C[C@@]2(C(=O)NS(=O)(=O)C2CC2)NC(=O)[C@@H]2C[C@@H](OC(=O)N3Cc4cccc(F)c4C3)CN2C1=O,15
Cc1cc(C(=O)Nc2ccc3c(c2)C(=O)N(C)[C@H]2CC[C@H](CC(=O)O)O[C@H]2CO3)no1,0
O=C(NCc1ccccc1)[C@H]1[C@H](CO)[C@H]2Cn3c(cccc3=O)[C@@H]1N2C(=O)Cc1ccccn1,-1
CN1CCCCC12CCN(Cc1ccc(F)cc1)CC2,-22
CN(CC1(CO)CCC1)c1nccc(C2CCCC2)n1,-15
C[C@@H]1CN([C@@H](C)CO)C(=O)c2cccc(NC(=O)C3CCOCC3)c2O[C@H]1CN(C)C(=O)Nc1cccc2ccccc12,23
Cc1noc(C)c1CN1Cc2nccn2CC(CN2CCCC2=O)C1 (stereo not given),39
Cc1nc(-c2cccnc2)ncc1C(=O)N(Cc1ccsc1)CC(C)C,-6
CC(=O)OCC(=O)C1=CCC2C3CCC4=CC(=O)C=CC4(C)C3(F)C(OC(C)=O)CC12C (stereo not given),26
Cc1noc([C@H]2C[C@@H]3CCN(C(=O)N(C)C)C[C@@H]3O2)n1,129
CN1[C@@H](C(=O)N2CCC(C(N)=O)CC2)C[C@@H](c2ccc(F)cc2)NS1(=O)=O,16
CCC(=O)N1[C@@H](CO)[C@@H]2c3ccccc3N(S(=O)(=O)c3ccc(F)cc3)C[C@@H]21,-5
CC(C)NC(=O)N(C)C[C@@H]1Oc2ccc(NC(=O)c3ccncc3)cc2C(=O)N([C@H](C)CO)C[C@@H]1C,11
CN(Cc1ncc[nH]1)C(=O)c1coc(CN2CCN(c3ccccc3F)CC2)n1,-4
Nc1cc(-c2ccc(C(=O)NCc3ccccc3)o2)c2cc[nH]c2n1,3
Cn1c(CNC(=O)C2CCC2)nc2c1CN(C(=O)Nc1ccc(F)cc1)CC2,-23
CCC(=O)N1[C@H](CO)[C@H](c2ccccc2)C12CN(C(=O)Nc1ccccc1F)C2,-58
Cc1ccc2c(c1)cc(S(=O)(=O)c1ccccc1)c(=O)n2CC(=O)NC(C)C,-3
N#C[C@@H]1N[C@H](CO)[C@H]1c1ccc(C#CC2CCCCC2)cc1,-6
O=C(NC(c1ccccc1)c1ccccc1)c1ccc2c(c1)OCCO2,-10
COc1ccc(CCN2CC(N)CC2=O)cc1 (stereo not given),-2

Some of the entries so far, field by field.
CN1[C@@H](C(=O)N2CCC(C(N)=O)CC2)C[C@@H](c2ccc(F)cc2)NS1(=O)=O
  Tgondii IFNg: 16
CCC(=O)N1[C@@H](CO)[C@@H]2c3ccccc3N(S(=O)(=O)c3ccc(F)cc3)C[C@@H]21
  Tgondii IFNg: -5
CC(C)NC(=O)N(C)C[C@@H]1Oc2ccc(NC(=O)c3ccncc3)cc2C(=O)N([C@H](C)CO)C[C@@H]1C
  Tgondii IFNg: 11
CN(Cc1ncc[nH]1)C(=O)c1coc(CN2CCN(c3ccccc3F)CC2)n1
  Tgondii IFNg: -4

(cont.)
compound,Tgondii IFNg
CC1=CC[C@@H]2CN(Cc3ccc(CN(C)S(C)(=O)=O)o3)C[C@@H]2C1,1
Cn1c(=O)c2ccc(C3CCC(CNC(=O)C4CCCC4)CC3)nc2n(C)c1=O (stereo not given),-9
COc1cccc(C2CCCN2C(=O)c2cnn3c(-c4ccccc4)ccnc23)c1 (stereo not given),1
Cc1nc(N2CCOCC2)sc1C(=O)NCC(C)(C)N1CCCCC1,-5
CC(C)(C)C1CCc2[nH]nc(C(=O)Nc3ccccc3OCc3ccccn3)c2C1 (stereo not given),-79*
COc1ccc(S(=O)(=O)Nc2ccc3c(c2)OC[C@H](C)NC[C@H](C)[C@H](OC)CN(C)C3=O)cc1,-43
CCN1CCC2(CN(Cc3cccnc3)CC23CCN(C(=O)Nc2ccccc2)CC3)C1=O (stereo not given),0
Cc1ccc2c(c1)oc(=O)n2CCNC(=O)CCc1nn(C)c(=O)c2ccccc12,2
C[C@H](CO)N1C[C@H](C)[C@@H](CN(C)C(=O)Nc2ccc3c(c2)OCCO3)OCc2cnnn2CCCC1=O,293
O=C(O/N=C1\Cc2ccccc2C1=O)c1cccs1,94
COC[C@@]12COC[C@@H]1CN(CCOCc1ccccc1)C2,-32
CCOC(=O)c1coc(N2C[C@H](O)[C@@H](N3CCOCC3)C2)n1,3
Fc1ccc(CN(Cc2ccncc2)CC2CCCO2)cc1 (stereo not given),4
CCOc1ccc(-c2nc(CNS(=O)(=O)c3ccc(C)c(C)c3)c(C)o2)cc1,154
Cc1cccc(-c2ccc(C(=O)N3CCCC3)cn2)c1C,-3
CN1C(=O)c2cc(NC(=O)c3cscn3)ccc2OC[C@H]2O[C@H](CC(=O)N3CCOCC3)CC[C@@H]21,2
C=CCO[C@@H]1CN(c2ccc(C)nn2)[C@H]2CCCO[C@@H]12,-30
CCCC#Cc1ccc([C@@H]2[C@H]3CN(CCC)CCCCN3[C@H]2CO)cc1,3
Cc1nc(CCNC(=O)C2CCN(C(=O)c3ccc(Br)cc3)CC2)cs1,-52
COCCN(C[C@@H]1[C@@H](c2ccccc2)[C@H](CO)N1C(=O)C1CC1)C(C)=O,8
Cc1ccc(C(=O)N2CCC(N(C)Cc3ccccc3)CC2C(=O)O)o1 (stereo not given),-7
CNc1nc(C2CCCCN2Cc2ccccc2-c2ccccc2OC)nc2c1CNCC2 (stereo not given),-52
Cc1cccc(CO[C@@H]2CN(C(=O)CN(C)C)[C@H]3CCCO[C@@H]23)n1,10
O=C(N1CCC(n2cnc3cccnc32)CC1)N1c2ccccc2Sc2ccccc21,-11
CCCNC(=O)c1cc2c(s1)CCN2C(=O)c1cccnc1,1
c1cnc(N2CCc3onc(COc4cccnc4)c3C2)nc1,-44
O=C(CCNc1c(-c2ccccc2)nc2cnccn12)N1CCC2(CC1)OCCO2,45
Cc1oc(C2CCN(C(=O)COc3ccccc3)CC2)nc1C(=O)N1CCCCC1,8
Cc1ccc2c(O)c(-c3ccccc3)c(=O)[nH]c2c1,72
CCC(NCC(=O)NCc1ccccc1F)c1nc(C)no1 (stereo not given),1
Cc1noc(C)c1S(=O)(=O)Nc1ccc2c(c1)C(=O)N([C@@H](C)CO)C[C@@H](C)[C@H](CN(C)Cc1ccc(C(=O)O)cc1)OCCCC[C@@H](C)O2,7
CCNC(=O)c1cc2c(c(-c3cccc(-c4cccc(C(=O)N(C)C)c4)c3)n1)[C@@H](CCO)N([S@](=O)C(C)(C)C)C2,-53
COCC(=O)N1CC(=O)N2[C@H](CO)[C@@H](c3ccc(-c4ccncc4)cc3)[C@H]2C1,-50
CCn1c(C2CCCN(Cc3ccnn3-c3ccccc3)C2)nn(C)c1=O (stereo not given),-23
Cc1cccc(COCC2CC3(CCN(Cc4ccoc4)CC3)CO2)n1 (stereo not given),141
Nc1nnc(-c2cn(-c3ccccc3)nc2-c2ccc(Cl)cc2)o1,-69
OCCC1CN(Cc2cccc(O)c2)CCN1CC1CCCCC1 (stereo not given),-46
CCn1c2ccccc2c2cc(CNCCc3ccc(Cl)cc3Cl)ccc21,50
COCCn1cc(-c2nc(C(=O)C3CC3)c3ccccn23)nc1C,7
Cc1nc2cc3c(=O)oc(C)nc3cc2c(=O)o1,19
O=C(Sc1ccc(Sc2ccc(SC(=O)c3ccco3)cc2)cc1)c1ccco1,-17
CC1(C)Cc2c(c(N3CCOCC3)nc3sc(C(=O)NCc4ccco4)c(N)c23)CO1,-39
CC(c1ccc(-c2ccc(C(=O)N3CCCC3)o2)cc1)N1CCOCC1 (stereo not given),61
Cc1cc(Cl)ccc1C(=O)C1CCCN(C(=O)CCCc2cccs2)C1 (stereo not given),6
C/C=C/c1ccc([C@H]2[C@@H](CO)N(C(=O)NC3CCCCC3)[C@H]2C#N)cc1,-5
CCN1CC[C@@]2(C(=O)N(C)C)CCN(C(=O)Cc3cccc(OC)c3)CC[C@H]12,-20
COC(=O)c1[nH]ncc1CN1CCN(C(=O)c2ccc(OC)cc2)CC1,-3
Cc1noc(CCC(=O)N2CCC(CC(=O)NC(C)c3ccccc3)CC2)n1 (stereo not given),-2
O=C1Nc2ccccc2C12Nc1ccccc1CO2 (stereo not given),12
COc1ccccc1C#Cc1ccc([C@H]2[C@@H](C#N)N(C(=O)C3CCC3)[C@@H]2CO)cc1,3

(list continues)
compound,Tgondii IFNg
O=c1nc2c(cnn2-c2ccccc2)c2n1CCN2,2
O=C(CN(Cc1ccccc1)C(=O)CCC(=O)Nc1nccs1)NCc1ccco1,-1
Cc1ccsc1C(CNC(=O)c1cc(=O)c2ccccc2[nH]1)N(C)C (stereo not given),-22
OC(COCc1ccccc1)CN1CCN(Cc2ccc3c(c2)OCO3)CC1 (stereo not given),15
COc1ccc(CC(=O)N2CC[C@H]3[C@@H]2CCN3c2ncccn2)cc1,-1
CCCNC(=O)N[C@@H]1C=C[C@H](CC(=O)N2CCN(C)CC2)O[C@@H]1CO,49
Cc1noc(C)c1NC(=O)Nc1ccc2c(c1)CC(=O)N([C@H](C)CO)C[C@@H](C)[C@@H](CN(C)Cc1ccc(C(F)(F)F)cc1)O2,4
O=C(CCO)N1CC[C@H]2[C@H]1CC(=O)N2c1ccsc1,-1
CCOc1cc(CCC(=O)N2CCC(c3nc4ccccc4cc3C(N)=O)CC2)on1,-43
COc1ccc(C(=O)NCCC2CN(C)CCO2)c(OC)n1 (stereo not given),-4
CCOc1ccc(C(=O)N2CCC3(CC2)NC(=O)c2cc(Cl)ccc2N3C)cc1,-16
COc1ccc(CNc2nc(C)nc(C)c2Oc2ccc(Cl)cc2Cl)cc1,-8
CC(C)(C)C(=O)N1CCN(c2cccc(Cl)c2)CC1,-44
CCc1cccc(NC(=O)c2cncc(NS(=O)(=O)c3ccc(Br)cc3)c2)c1,-35
Cn1ncc(Br)c1N1C(=O)c2ccccc2C1=O,7
COc1cccc(-c2nn(-c3ccccc3)cc2CN2CCC(CN3CCOCC3)CC2)c1,-10
CC(=O)N1CCC2(CCOCC2COCC(=O)N(C)C)CC1 (stereo not given),0
CC(C)c1nc(C2CCN(C(=O)CN(C)C3CCS(=O)(=O)C3)CC2)c2cccnc2n1 (stereo not given),-16
COCCC(=O)N1CCC(c2nc(C(=O)N3CCSCC3)c(C)o2)CC1,15
CCCn1cc(NC(=O)c2cccc(CN3CC[C@H](O)C3)c2)nn1,-48
NCCc1n[nH]c(=O)n1-c1ccc(Cl)c(C(F)(F)F)c1,-5
O=C(c1ccco1)N1C[C@H](OCCCn2cccn2)[C@@H]2OCCC[C@@H]21,7
O=C(COc1ccc(-c2cnc3ccccc3n2)cc1)c1cccs1,-85*
O=C(O)CCC/C=C/CC1COC(C(F)(F)F)OC1c1ccccc1O (stereo not given),28
O=C(c1ccccc1)c1cccc2c1NCC2,80
COC(=O)c1cnc(Sc2ccc(Cl)cc2)nc1C(F)(F)F,-101*
C[C@H](O)C(=O)Nc1c(I)c(C(=O)NC(CO)CO)c(I)c(C(=O)NC(CO)CO)c1I,11
Cc1ccc(S(=O)(=O)N2CCC3(CCC(C(=O)Nc4cccnc4)O3)CC2)cc1F (stereo not given),-1
Cn1cc(CCC(=O)NCC(C)(C)N2CCCCC2)c2ccccc21,8
CC(Cc1ccsc1)NC(=O)c1cn(C2CCCCC2)nn1 (stereo not given),-4
Cc1ccc(NC(=O)c2ccccc2)c(NC(=O)CCN2CCCCO2)c1,5
Cc1cccc(-c2nc(NC(=O)N3CCC(CCn4ccnc4C)CC3)n[nH]2)c1,-9
Cc1ccoc1C(=O)NCCNc1cccnc1,3
C[C@@H](NC(=O)C[C@H]1C=C[C@H](NS(=O)(=O)c2cccc(F)c2)[C@H](CO)O1)c1ccccc1,-16
CN1C[C@@H]2CCN(C(=O)NCc3ccccc3)CC[C@H]2S1(=O)=O,-29
OC[C@H]1O[C@@H](O[C@@H]2[C@@H](CO)O[C@](O)(CO)[C@H]2O)[C@H](O)[C@@H](O)[C@H]1O,13
CCn1ncc(C(=O)NCCN2N=C(c3ccccc3)CCC2=O)c1C,-6
C[C@@H]1CN([C@H](C)CO)C(=O)CCCn2nncc2CO[C@H]1CN(C)S(=O)(=O)c1cn(C)cn1,340
C[C@H]1CN([C@@H](C)CO)C(=O)c2ccccc2-c2ccccc2CO[C@H]1CN(C)S(=O)(=O)c1ccc([N+](=O)[O-])cc1,66
Cc1oncc1C(=O)NCc1cc(=O)n2c(n1)CN(C)CCC2,-57
Cc1ncc(-c2c(-c3ccccc3)ncn2CCCCN2CCCC2)[nH]1,-6
CO[C@H]1CC[C@@H]2CCN(C)C(=O)[C@@H](C)N(C)C(=O)c3cccc(C#N)c3OC[C@H]1O2,53
CC(C)NC(=O)N1CCn2cc(CN3CCCC3)nc2C1,278

Retrieved by structure from the list above, 2 records:
compound,Tgondii IFNg
CCn1ncc(C(=O)NCCN2N=C(c3ccccc3)CCC2=O)c1C,-6
CN1C[C@@H]2CCN(C(=O)NCc3ccccc3)CC[C@H]2S1(=O)=O,-29
